Assay outcomes (PubChem)
CSC inhib – cancer stem cell viability inhibitors, primary screen, luminescence. cancer stem cell-like cells viability. inhibition, % at 7.5 µM. 300,000 tested, 1.1% active. AID 2717, 2010;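 active = mean at 75% or more and at least half the replicates too; tested in HMLE shEcad cells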;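 note: 0% = median of negative and 100% = median of positive control wells; the first replicate is given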
UUG fidelity – modulators of yeast start codon fidelity, primary screen, whole organism, S. cerevisiae, single point, plate reader; S. cerevisiae UUG-firefly luciferase reporter, luminescence/redox ratio; activity score, % at 18.7 µM; 350,000 tested, 0.13% active;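 active = replicate mean at a twofold rise or more, about +100% in these data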;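 note: firefly luciferase made from a UUG start codon reports start codon fidelity; reporter light over untreated wells divided by growth signal over untreated wells; some hits fall short of that in this replicate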
MT1-MMP act inh – blockers of MT1-MMP proenzyme processing, primary screen, HT1080 RFP-PRO-GFP cells, GFP/RFP fluorescence; 360,000 tested, 0.061% active; GFP/RFP ratio fluorescence, overnight; percent of plate control window, DMSO zero; AID 651647, 2012; GFP/RFP ratio change, % at 20 µM;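 active = GFP/RFP ratio change of at least 30% with cell ATP level not reduced by more than half and red fluorescence within 50% of control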; note: strong numbers were not always called active
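Read-out: GFP/RFP fluorescence ratio; Test system: RFP-PRO-GFP reporter HT1080 cells; Compound dosing: single-point 20 µM compound, 1% DMSO; Times: overnight compound exposure at 37 °C.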
eIF4H inh – human eIF4H binding inhibitors, primary screen, translation initiation inhibitor project, biochemical, uHTS, fluorescence polarization. 290,000 tested, 0.94% active. Eukaryotic translation initiation factor 4H (Homo sapiens), Q15056. AID 2012, 2009. inhibition, % at 35 µM. eIF4H fluorescence polarization binding assay;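 active = 50% or more with normal probe brightness, or confirmed in later tests; about a fifth of its hits are not listed in these tables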;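 note: calls also rest on retests at 20 µM and on dose response follow-up; 0% = protein and probe with vehicle and 100% = probe without protein; strong numbers were not always called active; many hits fall short of the cut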
PABP FP inh – PABP poly(A) RNA binding inhibitors, primary screen, biochemical, fluorescence polarization, uHTS; Polyadenylate-binding protein 1 (Homo sapiens), P11940; inhibition, % at 35 µM; 290,000 tested, 1% active;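 active = 50% or more with normal probe brightness, or confirmed in later tests; about a fifth of its hits are not listed in these tables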;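 note: calls also rest on retests at 20 µM and on dose response follow-up; controls were probe without protein and protein plus probe with vehicle; some compounds called inactive have numbers as strong as hits; many hits fall short of the cut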
HIV Env fusion – inhibitors of HIV-1 Env-driven cell-cell fusion, primary screen, HeLa-JRFL effector, CEM21 target cells, luciferase; inhibition, % at 12.3 µM; 360,000 tested, 1.1% active;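 active = mean replicate inhibition score of at least 50 and every replicate individually at or above 50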;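 note: 0% = plate neutral controls and 100% = maraviroc near 300 nM; one replicate is shown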
Rce1 inhib – yeast Rce1p protease inhibitors, primary screen, biochemical, fluorescence, cell-free homogeneous | yeast membranes, quenched prenylated peptide cleavage fluorescence | calls only | 290,000 tested, 0.27% active;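 active = fall in fluorescence gain of 50% or more versus controls, with final raw signal at or below 3038400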;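 note: plate controls were neutral control wells for no effect and wells lacking membranes for full effect; tested at 10 µM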
Target sequence (Q03530 whole entry, looked up): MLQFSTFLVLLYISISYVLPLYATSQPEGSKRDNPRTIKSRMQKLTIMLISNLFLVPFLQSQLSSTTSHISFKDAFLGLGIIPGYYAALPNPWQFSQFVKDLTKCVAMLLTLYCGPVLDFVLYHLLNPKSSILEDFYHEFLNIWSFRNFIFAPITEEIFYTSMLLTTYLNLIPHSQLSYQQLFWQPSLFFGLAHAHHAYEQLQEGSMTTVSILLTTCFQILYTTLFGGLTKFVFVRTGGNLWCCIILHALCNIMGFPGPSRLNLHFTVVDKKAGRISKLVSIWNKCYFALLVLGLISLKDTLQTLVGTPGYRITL
eIF4H inh retest – second read-out of eIF4H inh, no call of its own (marks repeat the call); inhibition, %; compound at 20 µM; confirmation average;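 mean of two retest wells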
PABP FP inh retest – recorded beside PABP FP inh, whose call it bears; inhibition, %; compound at 20 µM; confirmation repeats;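 mean of two retest wells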
MT1-MMP act inh RFP – second read-out of MT1-MMP act inh, no call of its own (marks repeat the call); RFP signal change, %; measured here: RFP expression control read;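 0 = vehicle wells; hits needed this value within 50% of zero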
* hit, by the source's call; i = inactive; nt = no result given.

SMILES | CSC inhib | UUG fidelity | MT1-MMP act inh | MT1-MMP act inh RFP | eIF4H inh | PABP FP inh | HIV Env fusion | Rce1 inhib | others
O=c1c2c(n3nnnc3n1Cc1ccccc1)-c1ccccc1CC21CCCC1 | 64 | -5 | -6 | -2 | -1 | -1 | 19 | i
CC(C)C[C@@H]1NC(=O)N(CCCn2ccnc2)C1=O | 5 | -13 | -2 | 2 | -13 | -8 | -2 | i
COc1ccc(NC(=O)CN(C)C(=O)CN2C(=O)NC3(CCCC3)C2=O)cc1 | nt | -7 | -1 | -1 | nt | nt | 18 | i
Cc1ccc(NC(=O)O/N=C/c2ccc(Br)cc2)cc1 | 22 | -20 | 3 | 4 | 1 | 6 | -2 | i
COc1ccc(N2CCN(C(=O)CCCSc3nc4ccccc4[nH]3)CC2)cc1 | -18 | -34 | -16 | -18 | -5 | 8 | -40 | i
CC(C)(C)C(=O)Nc1nc2c(s1)COc1ccccc1-2 | -2 | -5 | -4 | -17 | -6 | 6 | -17 | i
COC(=O)C(C)Sc1nnc(Cc2cc(=O)[nH]c(=O)[nH]2)n1-c1cccc(OC)c1 (centres undefined) | 0 | -19 | -8 | 2 | 14 | 16 | -15 | i
COc1cc([C@H]2[C@@H]3CCCC[C@]3(O)CCN2Cc2ccccc2F)ccc1O | -7 | -12 | 2 | -1 | 2 | -9 | -97 | i
COC(=O)[C@H](CC(C)C)NS(=O)(=O)c1ccccc1 | -25 | -22 | -2 | -2 | 6 | -3 | 2 | i
CCn1c(=O)c2c(nc3n2CCS3)n(C)c1=O | -9 | -11 | -3 | 1 | -10 | -1 | nt | i
CN(C)Cc1c(O)ccc2occ(C(=O)c3ccccc3)c12 | -11 | -5 | -3 | -1 | 5 | 4 | 8 | i
O=C1NC(c2ccccc2)=C(c2ccccc2)C1=O | -14 | nt | -1 | 0 | -1 | 4 | 10 | nt
CCCOc1ncnc2c1[nH]c1ccccc12 | 2 | -1 | 10 | -15 | 11 | 5 | 15 | i
OCC[C@H]1C[C@@H](O)[C@H](O)[C@]2(Cc3ccccc3CCO2)O1 | 2 | -2 | 1 | 3 | nt | nt | 5 | nt
CC(C)c1ccc(N(CC(=O)NCCc2ccccc2)C(=O)c2csnn2)cc1 | -12 | 5 | 0 | -4 | -9 | 2 | -8 | i
CS(=O)(=O)N1Cc2ccccc2CC1C(=O)Nc1ccccc1C(N)=O (centres undefined) | -6 | -7 | nt | nt | -12 | -5 | -43 | i
O=C1NC(Cc2ccccc2)c2nc3cc(F)c(F)cc3c(=O)n2-c2cc3ccccc3cc21 (centres undefined) | nt | -8 | -3 | -8 | nt | nt | -46 | nt
C=CCn1c(NC(=O)CC)c(C(=O)OCC)sc1=S | -2 | -22 | 1 | 6 | -10 | -8 | -23 | i
CCCn1cc(SCC(=O)NC2CCCC2)c2ccccc21 | -7 | -10 | -2 | 0 | 7 | 4 | 24 | i
O=C1CS/C(=N\N=C\c2ccco2)N1c1ccccc1 | 5 | nt | -1 | 1 | 85* | 32* | -16 | i | eIF4H inh retest=93*;PABP FP inh retest=76*
CCN(c1ccccc1)S(=O)(=O)c1ccc(Cl)c(C(=O)NCc2ccco2)c1 | -3 | -14 | 1 | 1 | nt | nt | 1 | nt
CN(C(=O)CSc1nnc(-c2ccco2)n1N)C1CCCCC1 | -1 | nt | 2 | 2 | -8 | -6 | 8 | i
CCN(CC)CC(O)COC(c1ccccc1)c1ccccc1 (centres undefined) | -20 | -19 | 2 | -3 | -10 | -14 | -13 | i
COc1ccccc1C(=O)NCCC(=O)NCC(c1ccco1)N1CCCC1 (centres undefined) | nt | -22 | 3 | 5 | nt | nt | 3 | nt
CCOC(=O)C(Cc1ccc(NC(=O)/C(=C/c2ccc(OC(C)=O)cc2)NC(C)=O)cc1)N1C(=O)c2ccccc2C1=O (centres undefined) | -6 | 6 | -2 | -2 | -2 | -1 | -52 | i

Further results.
SMILES | CSC inhib | UUG fidelity | MT1-MMP act inh | MT1-MMP act inh RFP | eIF4H inh | PABP FP inh | HIV Env fusion | Rce1 inhib | others
O=C(NCCc1ccccc1)c1ccccc1F | -3 | nt | 2 | 0 | -3 | -2 | -21 | i
CC(=O)N1CCN(S(=O)(=O)c2cccc(C(=O)NC3CCCC(C)C3C)c2)CC1 (centres undefined) | nt | -3 | 3 | 3 | nt | nt | 17 | nt
Cc1cccc(C)c1Nc1ncnc(N)c1[N+](=O)[O-] | -6 | -10 | 1 | 0 | 7 | -20 | -10 | i
COc1ccc(CC2(CO)CCN(Cc3cnn(C)c3)CC2)cc1 | nt | nt | -1 | 0 | 0 | 2 | -7 | i
CCC(Cc1ccccc1)NS(=O)(=O)c1ccc2c(c1)NC(=O)CO2 (centres undefined) | nt | 4 | 1 | -4 | 1 | 6 | 2 | i
Cc1ccc(C(=O)Nc2ccc(N3CCOCC3)cc2)cc1S(=O)(=O)N1CCCCC1 | -16 | 2 | -1 | -15 | nt | nt | -9 | nt
COc1ccc(C(=O)Nc2nnc(SCC(=O)NC3CC3)s2)cc1 | -5 | -19 | -1 | -1 | -15 | 0 | 8 | nt
CCc1cccc2c(C(=O)COC(=O)c3ccccc3)c[nH]c12 | 1 | -18 | -1 | 1 | 0 | -14 | -26 | i
CCOC(=O)Cc1csc(NC(=O)CN2CCN(CC)CC2)n1 | nt | -2 | 18 | 6 | -3 | -6 | -10 | i
CCN(CC)c1nc2ccccc2c(N)c1-c1ccccc1 | 13 | -10 | -8 | -5 | -7 | 6 | nt | i
COc1cccc2[nH]c(C(=O)NCc3ccccc3)cc12 | nt | -8 | -9 | -8 | -1 | 0 | -6 | i
OCC1(CO)CC2(C1)CC(CO)(CO)C2 | nt | -1 | -1 | 3 | nt | nt | 9 | nt
CC(=O)c1cccc(N2C(=O)CC(N3CCN(S(=O)(=O)c4ccc(Cl)cc4)CC3)C2=O)c1 (centres undefined) | nt | -5 | -1 | 1 | nt | nt | 0 | nt
O=C(c1ccco1)N(CC1CCCO1)c1nc(-c2ccccc2)cs1 (centres undefined) | 16 | -16 | -2 | -9 | -3 | -2 | 25 | i
COc1ccc(C(=O)NC2=C(C#N)CCC2)cc1OC | 6 | -8 | 5 | 5 | -16 | 0 | nt | i
Cc1cc(Cl)ccc1NC(=O)c1ccc2c(c1)CCN2S(C)(=O)=O | -2 | -16 | -3 | -2 | -5 | 7 | -6 | i
CN(Cc1ccco1)C(=O)c1cc2c(s1)-c1ccc(Cl)cc1S(=O)(=O)C2 | 36 | 0 | -1 | -16 | -6 | 7 | -7 | i
COc1cc(/C=C/C(=O)N2CCCC2)cc(OC)c1OC | 1 | 1 | 5 | 8 | -9 | 19 | 5 | i
O=C1CC(c2ccccc2Cl)c2c(sc3c(=O)[nH]c(CCl)nc23)N1 (centres undefined) | -14 | nt | nt | nt | -9 | 18 | nt | i
Cn1cnc(S(=O)(=O)N2CCc3ccccc32)c1 | -12 | 0 | -2 | 2 | 7 | 0 | nt | i
CCOC(=O)c1ccc(-c2cccc(C(F)(F)F)c2)nc1C | -11 | -16 | 1 | 2 | 2 | -1 | -41 | i
CCOC(=O)CSc1ccc2ccccc2n1 | -18 | nt | -4 | 4 | 4 | 4 | -1 | i
O=C(O)CC1(CC(=O)Nc2cccc(C(F)(F)F)c2)CCCC1 | -4 | -13 | 2 | 4 | -5 | -7 | -30 | i
COc1ccccc1C(=O)N/N=C(\C)CC(=O)Nc1ccc(Cl)cn1 | 1 | nt | 0 | 0 | 2 | -11 | -12 | i
Cc1cc(C)cc(Nc2ncc3c(n2)CCCC3=O)c1 | -14 | -54 | -8 | -1 | 1 | -11 | nt | i

The results go on.
SMILES | CSC inhib | UUG fidelity | MT1-MMP act inh | MT1-MMP act inh RFP | eIF4H inh | PABP FP inh | HIV Env fusion | Rce1 inhib | others
CSc1nsc(SCC(=O)Nc2nc3ccccc3s2)n1 | 4 | -15 | -1 | 1 | 2 | -12 | -8 | i
CC(=Nc1cccc(O)c1)c1sc2ccccc2c1O | 20 | -7 | -71 | 2 | 34 | 29 | nt | i
O=C1OCc2ccc(NS(=O)(=O)c3ccc(C(F)(F)F)cc3)cc21 | -2 | -7 | 4 | -9 | -3 | 8 | -2 | i
CN(C)CCCN(C(=O)CCS(=O)(=O)c1ccccc1)c1nc2cc3c(cc2s1)OCO3 | -11 | 8 | -8 | -1 | -8 | -6 | 3 | i
COc1cc(NS(=O)(=O)c2ccc(N)cc2)nc(OC)n1 | -6 | -4 | 2 | 4 | -8 | -2 | 8 | i
NS(=O)(=O)c1ccc(CNC(=O)c2cc(-c3cccnc3)nc3ccc(Cl)cc23)cc1 | 2 | -7 | -1 | 3 | -5 | -6 | i | i
CCOC(=O)c1c(C)c(-c2ccccc2)n(CC(=O)NCCCN(CC)CC)c1C | -4 | nt | 1 | 1 | 9 | 1 | -56 | i
O=C(COC(=O)c1ccc2c(=O)n3c(nc2c1)CCC3)Nc1ccccc1F | -4 | -22 | 0 | 0 | -1 | 5 | -28 | i
Cc1nc2sc3c(c2c(=O)o1)CCCC3 | -17 | -14 | -2 | 1 | -4 | 4 | nt | i
O=C(NCc1ccc(F)cc1)c1ccc(CS(=O)Cc2ccccc2Cl)o1 (centres undefined) | -2 | nt | -2 | -5 | -10 | 4 | -2 | i
NS(=O)(=O)c1cc(C(=O)O)cc(N2CCCC2)c1Oc1ccccc1 | 1 | -28 | 3 | 3 | nt | nt | 11 | nt
Cc1ccc(SCCNS(C)(=O)=O)cc1 | nt | -10 | 0 | -2 | 3 | 3 | -59 | i
Cc1ccc(S(=O)(=O)CCC(=O)OCC(=O)NCC(=O)Nc2cccc(C)c2C)cc1 | 1 | -2 | -1 | -1 | -1 | -4 | 13 | i
CN1CCCN(C(=O)c2ccccc2Cl)CC1 | 0 | 4 | 4 | 1 | 87 | 1 | 16 | i | eIF4H inh retest=1;PABP FP inh retest=6
Cc1cccc(NC(=O)CNC(=O)COc2cccnc2[N+](=O)[O-])c1C | -7 | -9 | -2 | -4 | nt | nt | nt | nt
O=C1C2CCCN2C(c2cccc(F)c2)N1c1cccc(Cl)c1 (centres undefined) | 8 | -7 | 4 | 1 | -3 | -4 | 3 | i
COCCN(CC(=O)Nc1cccc(C)c1C)C(=O)c1ccc(-n2cccn2)cc1 | -8 | -12 | 5 | 6 | nt | nt | 0 | nt
O=C(CSc1nc(O)c(Cc2ccccc2)c(=O)[nH]1)N1CCOCC1 | -16 | -19 | 6 | 7 | 5 | -17 | -3 | i
Cc1nc([N+](=O)[O-])cn1C(C)C | -6 | -3 | -2 | -4 | 1 | -7 | 6 | i
CCn1cc(C(=O)NCc2ccccn2)c(=O)c2cc(F)c(N3CCN(C)CC3)cc21 | -3 | -17 | 1 | 4 | 0 | 8 | nt | i
CCOC(=O)C1=C(C)N(Cc2ccc(C(=O)O)cc2)C(=O)NC1c1ccc([N+](=O)[O-])cc1 (centres undefined) | -12 | -18 | 4 | 1 | -1 | 0 | -5 | i

Entries from the list above containing a nitro group on carbon:
SMILES | CSC inhib | UUG fidelity | MT1-MMP act inh | MT1-MMP act inh RFP | eIF4H inh | PABP FP inh | HIV Env fusion | Rce1 inhib | others
Cc1cccc(C)c1Nc1ncnc(N)c1[N+](=O)[O-] | -6 | -10 | 1 | 0 | 7 | -20 | -10 | i
Cc1cccc(NC(=O)CNC(=O)COc2cccnc2[N+](=O)[O-])c1C | -7 | -9 | -2 | -4 | nt | nt | nt | nt
Cc1nc([N+](=O)[O-])cn1C(C)C | -6 | -3 | -2 | -4 | 1 | -7 | 6 | i
CCOC(=O)C1=C(C)N(Cc2ccc(C(=O)O)cc2)C(=O)NC1c1ccc([N+](=O)[O-])cc1 (centres undefined) | -12 | -18 | 4 | 1 | -1 | 0 | -5 | i
